# Cruzain inh Det: inhibitors of Trypanosoma cruzi cruzain with detergent; P25779; purified cruzain, Z-FR-AMC fluorescence, 0.01% Triton; Potency, µM, without a hit: max response, negative = inhibition, most hits filed as inhibitors; actives 0.43% (n = 200,000); AID 1478;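 note: plate controls were neutral wells for no effect and buffer without enzyme for full effect; nearly all actives have a fitted effect of over 40% in size; top concentration of the series not given in the record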
# Target sequence (P25779 123-467 limits assumed): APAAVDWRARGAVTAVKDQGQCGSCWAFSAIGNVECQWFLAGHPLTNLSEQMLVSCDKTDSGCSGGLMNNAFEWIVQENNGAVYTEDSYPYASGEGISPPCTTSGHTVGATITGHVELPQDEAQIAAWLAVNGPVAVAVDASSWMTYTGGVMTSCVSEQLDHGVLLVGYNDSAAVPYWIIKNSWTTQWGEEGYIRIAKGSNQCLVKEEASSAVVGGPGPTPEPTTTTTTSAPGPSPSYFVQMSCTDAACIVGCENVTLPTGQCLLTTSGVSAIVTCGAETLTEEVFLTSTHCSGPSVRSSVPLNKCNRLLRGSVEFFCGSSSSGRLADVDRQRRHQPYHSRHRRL
#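 Read-out: AMC fluorescence (360 nm excitation, 450 nm emission), four reads over 2 min, first-to-third difference used. Conditions: cruzain 1.5 nM, Z-FR-AMC 2 uM, pH 5.5 acetate, 5 mM DTT, 0.01% Triton X-100.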
# Lassa entry inh: Lassa virus entry inhibition. Lassa virus pseudotype entry inhibition, cell reporter; control for the full effect not named in the record. Potency, µM (series often up to 37.9 µM), without a hit: at the top dose activity change, negative = inhibition, actives largely listed as inhibitors. actives 1.2% (n = 300,000); active means well fitted inhibition curve with a large enough effect; inconclusive means small, poorly fitted or top-dose-only effect, or effect the other way; inactive means flat fitted curve, though single readings scatter; tested in HEK293 cells; note: % is set by controls: 0 for no effect and ±100 for the full control effect; nearly all actives have a fitted effect of over 50% in size; luciferase read-out
# MARV entry inh: blocks Marburg virus binding to or entry into cells; Marburg virus pseudotyped entry inhibition, cell reporter; control for the full effect not named in the record; about a third of the inactives were read at about 46 µM; Potency, µM (doses to about 37.8 µM), for the others: top-dose activity change, negative = inhibition, most hits filed as inhibitors; actives 1.8% (n = 300,000); active = well fitted inhibition curve with a large enough effect; inconclusive = small, poorly fitted or top-dose-only effect, or effect the other way; inactive = flat fitted curve, though single readings scatter; tested in HEK293 cells; about a fifth of its hits are not listed in these tables; note: % is set by controls: 0 for no effect and ±100 for the full control effect; luciferase read-out
# StopGo reporter: FMDV 2A StopGo reporter, luciferase signal; human cells with a luciferase reporter of 2A StopGo recoding; control for the full effect not named in the record; Potency, µM (highest dose often 57.9 µM), for the others: top-dose signal change, negative = less light; actives 1.2% (n = 410,000); AID 1159524; active = well fitted falling curve with a large enough effect; inconclusive = small, poorly fitted or top-dose-only effect; inactive = no such curve, though single readings can be large or run the other way; tested in HEK293T cells; note: % is set by controls: 0 for no effect and ±100 for the full control effect; nearly all actives have a fitted effect of over 45% in size; luciferase light after 4 h
# NS1 function inh: influenza NS1 inhibition; Potency, µM (titrated, usually from 46.1 µM), without a hit: at the top dose activity, positive = more growth; AID 2326; S. cerevisiae slowed by influenza A NS1, growth recovery by OD600; actives 0.4% (n = 270,000); active means well fitted rising curve with a large enough effect; inconclusive means small, poorly fitted or top-dose-only effect; inactive means no such curve, though single readings can be large or run the other way; note: nearly all actives have a fitted effect of over 50% in size
#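 S. cerevisiae expressing influenza A NS1, grown in glucose, washed, then diluted 1:100 into pH 6.0 -URA galactose medium with 23 nl compound. Growth recovery read as OD600; NS1-free strain serves as control.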
# Cruzain noTriton: inhibitors of Trypanosoma cruzi cruzain without detergent | actives 2.3% (n = 200,000) | purified cruzain, Z-FR-AMC fluorescence, no detergent | P25779 | Potency, µM, without a hit: max response, negative = inhibition, usual class: inhibitors;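 note: plate controls were enzyme without inhibitor for no effect and buffer without enzyme for full effect; nearly all actives have a fitted effect of over 40% in size; top concentration of the series not given in the record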
#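 Purified cruzain at 1.5 nM, pre-incubated 15 min with compound at room temperature in 100 mM sodium acetate pH 5.5, 5 mM DTT, 0.00005% Triton X-100. Reaction started with 2 uM Z-FR-AMC; AMC fluorescence increase over 60 s gives rate.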
# RE007 growth inh: less growth of the S. pombe RE007 Vpr strain. S. pombe RE007 Vpr strain, BacTiter-Glo ATP luminescence, 24 h; control for the full effect not named in the record. Potency, µM (top dose mostly 92.2 µM), inactives show at the highest dose activity change, negative = less growth. actives 0.21% (n = 360,000). AID 651644; active = well fitted falling curve with a large enough effect; inconclusive = small, poorly fitted or top-dose-only effect; inactive = no such curve, though single readings can be large or run the other way;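 note: % is set by controls: 0 for no effect and ±100 for the full control effect; nearly all actives have a fitted effect of over 50% in size; the assay follows cell death caused by Vpr and the record does not say whether a fall means rescue or toxicity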
#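 Fission yeast RE007 carrying one integrated HIV-1 vpr copy, seeded at OD 0.01 in PMG+AL medium with 23 nL pinned compound. Grown 24 h at 30 degrees; viability read by BacTiter-Glo luminescence after 5 min.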
# SARS PLpro yeast: blocks SARS-CoV papain-like protease in a yeast assay. S. cerevisiae expressing SARS-CoV PLpro, growth rescue; control for the full effect not named in the record. Potency, µM (series often up to 32.9 µM), for the others: at the highest dose activity, positive = growth rescue. actives 0.19% (n = 330,000); active means well fitted rising curve with a large enough effect; inconclusive means small, poorly fitted or top-dose-only effect; inactive means no such curve, though single readings can be large or run the other way; note: 0% is about no effect; nearly all actives have a fitted effect of over 55% in size; growth read by luminescence after 48 h
# Numbers without * were called inactive; ? = inconclusive; . = not tested or not shown; [ ] = dose if it differs, or a comment. Unless noted, calls come from the whole dose curve; as a rule, active = well fitted curve in the direction sought with a large enough effect; inconclusive = small, poorly fitted or top-dose-only effect, or another doubt; inactive = no such curve, though single readings can be large; an effect the other way counts as inactive or inconclusive. Potency is the fitted concentration of half-maximal effect.
SMILES,Cruzain inh Det,Lassa entry inh,MARV entry inh,StopGo reporter,NS1 function inh,Cruzain noTriton,RE007 growth inh,SARS PLpro yeast
CC(C)N(C)CCOC(=O)c1ccccc1Cl,0.1%,-6%,-21%,-10%,-1%,-1%,-23%,-7%
O=C(COc1ccc(Br)cc1Br)NNC(=O)c1cccs1,.,.,-24%[46.1 µM],26%,0%,.,-1%,-5%
c1cncc(Nc2c3ccccc3nc3ccccc23)c1,.,1%,?,-18%,-2%,.,-1%,-1%
O=C(O)CSc1nnc(-c2ccc(Cl)cc2Cl)n1-c1ccccc1,.,0%[46.1 µM],13%[46.1 µM],-6%,24%,.,-2%,3%
CCC(C)(C)n1nnnc1C(c1ccccc1)N1CCN(C2CCCC2)CC1 (stereo not given),3.9%,4%,-27%,-7%,12%,4%,2%,-2%
COc1cc(C=O)ccc1Oc1nnnn1-c1ccc(C(N)=O)cc1,2.5%,-31%[14.3 µM],8%,30%,6%,-9%,-5%,2%
O=C(CCc1ccccc1)Nc1cc(Cl)ccc1O,-2.9%,0%,8%,-12%,-153%,3%,-7%,-17%
CCc1ccc(NC(=O)c2n[nH]c(=O)c3ccccc23)cc1,.,.,.,23%,0%,.,0%,0%
CCc1ccccc1NC(=O)c1cnc2n(c1=O)CCS2,-2.9%,-5%,-3%,-4%,-7%,-19%,0%,-6%
C=Cn1ccnc1P(=S)(c1nccn1C=C)C1CCCCC1,0.3%,17%,?,.,-50%,?,-1%,-3%
O=C(CSc1ccc(F)cc1)Nc1ccc(Br)cc1,.,.,.,76%[activator],-9%,.,-7%,-2%
O=C(Nc1ccc(N2CCOCC2)cc1)C1CCN(S(=O)(=O)c2ccc3c(c2)OCCO3)CC1,.,-32%,15%[46.1 µM],-1%,.,.,0%,1%
COc1ccc(OCC(=O)N2CCC(n3nccc3NC(=O)C3CC3)CC2)cc1,.,.,.,8%,1%,.,8%,-1%
CCN(CC)CCCN(C)C(=O)Cn1nc(Cc2ccncc2)c2ccccc2c1=O,.,-1%[46.1 µM],?,-4%,3%,.,8%,1%
Cc1cc(C)cc(NC(=O)CN2CCN(C(=O)c3cccs3)CC2)c1,.,-25%[46.1 µM],10%[46.1 µM],-2%,.,.,-10%,4%
CC(/C=C/c1ccc(N(C)C)cc1)=N\N=C(/N)SC1CC(=O)N(c2ccc(C(=O)O)cc2)C1=O (stereo not given),?,-7%,?,2%,?,10µM*,0%,29%
NC(=O)COC(=O)c1cc(=O)[nH]c2ccc(S(=O)(=O)Nc3ccc(F)cc3)cc12,.,8%[46.1 µM],2%[46.1 µM],47%[activator],0%,.,9%,3%
CC(C)CCCCCCCCCCCCC(=O)NCC(=O)NC1C(O)C(O)C(Nc2ncnc3nc[nH]c23)OC1C(O)CO (stereo not given),.,.,.,?,.,.,?,.
CCOC(=O)c1c(C)[nH]c(=S)c(C#N)c1-c1ccccc1,-5.6%,-1%,-5%,0%,?,-7%,19%,4%
O=C(CNC(=O)c1ccc2c(c1)OCO2)N/N=C(Br)/C=C/c1ccccc1,-10%,?,?,-11%,7%,-5%,-24%,?
Cn1cc(CN2CCN(c3ccccc3)CC2)c2ccccc21,3.8%,-18%,15µM*,-11%,-8%,-6%,-12%,?
O=C(/C=C/c1cccnc1)c1cccc(O)c1,.,?,?,-29%,?,.,5%,-1%
CN(C)/C=N/c1nccc(-c2cccs2)n1,.,2%,23%[46.1 µM],0%,.,.,1%,-3%
CN(Cc1nccn1C)C(=O)CC1C(=O)NCCN1Cc1cccc(Oc2ccccc2)c1 (stereo not given),.,.,.,-2%,0%,.,-7%,0%
CCOC(=O)c1c(CN2CCN(C)CC2)n(C)c2cc(Br)c(OC)cc12,-1.9%,?,?,-12%,-4%[9.22 µM],-1%,-10%,-6%
O=C(Nc1cccc(S(=O)(=O)N2CCCCC2)c1)c1ccc(N2CCCC2=O)cc1,.,-8%,23%,-6%,.,.,15%,6%
CC1/C(=C\c2ccc(Cl)cc2)C(=O)C2CC1C2(C)C (stereo not given),-2.6%,9%,2%,-14%,-37%,4%,15%,-2%
Cc1cc(C(=O)NNc2ccc(C)c(C)c2)no1,.,.,.,18%,-32%,.,6%,-3%
Cc1ccc(N2C(=O)c3ccccc3C2O)nc1 (stereo not given),-2.0%,3.7µM*,2.1µM*,.,-1%,-2%,.,-76%
COC(=O)c1cccc(Nc2c(-c3ccc(O)c(OC)c3)nc3nc[nH]n23)c1,-2.6%,-27%[46.1 µM],.,-18%,.,-8%,.,.
COc1ccc(OC)c(Cc2nnc(CCC(=O)N3CCC(N4CCCCC4)CC3)o2)c1,.,6%[46.1 µM],?,8%,-1%,.,-15%,-1%
O=C(O)C1CCN(C(=O)c2cc(F)cc3c2OCOC3)CC1,.,0%,-2%,-4%,-3%,.,-10%,-1%
Cc1ccc(OCC(=O)N2CCN(C)CC2)c(Br)c1,7.1%,24%,?,8%,-1%,12%,-2%,0%
CC(C)(C)c1ccc(C(=O)NC(=S)N2CCCC2)cc1,.,-6%[46.1 µM],-16%[46.1 µM],-9%,-22%,.,5%,-4%
CC(=O)c1c(C)oc2ccc(NS(=O)(=O)c3ccc(F)cc3C)cc12,.,.,?,-17%,-36%,.,-16%,0%
CCOC(=O)c1sc(=S)n(C)c1NC(=O)c1ccccc1C,-7.1%,6%,-2%,?,-1%,-2%,6%,14%
CCn1nccc1C(=O)Nc1ccc(Cl)c(Cl)c1,-11%,?,-14%,35%[activator],-55%,-4%,?,-27%
O=C(NCc1ccccc1F)C1CCCN1C(=O)NC1CCCCC1 (stereo not given),-0.3%,9%,-9%,3%,5%,-4%,-9%,27%
Cc1ccc2c(c1)N(CC(=O)N1CCc3ccccc3C1)C(=O)CO2,4.9%,-1%,-1%,-26%,-9%,-6%,8%,-1%
O=C(NC(NC(=S)Nc1cccc(Cl)c1)C(Cl)(Cl)Cl)OCc1ccccc1 (stereo not given),-18%,?,?,.,3%,?,4%,5%
COCCn1c(C)cc(C(=O)CSc2nnc3ccccn23)c1C,4.1%,.,.,-70%,3%,-6%,-3%,-11%
COc1cc2[nH]c(=S)n(N(C(C)=O)C(C)=O)c(=O)c2cc1OC,-1.0%,-22%,-8%,-5%,7%,5%,18%,7%
O=C(NCc1ccc(F)cc1F)c1cc(COc2c(F)cccc2F)on1,.,-30%,2%,0%,5%,.,-9%,0%
COc1ccccc1CN1CCC(n2nccc2NC(=O)CCOc2ccccc2)CC1,.,4%,-7%,-20%,6%,.,-12%,1%
O=C1C2CC=C(Cl)CC2C(=O)N1CCc1ccccc1 (stereo not given),-2.7%,16%[14.3 µM],4%,0%,-4%,0%,-1%,-5%

# Looked up above.
# CN(Cc1nccn1C)C(=O)CC1C(=O)NCCN1Cc1cccc(Oc2ccccc2)c1 (stereo not given) in SARS PLpro yeast is listed with 0%
# O=C(NCc1ccc(F)cc1F)c1cc(COc2c(F)cccc2F)on1 in NS1 function inh is listed with 5%

# Next section
SMILES,Cruzain inh Det,Lassa entry inh,MARV entry inh,StopGo reporter,NS1 function inh,Cruzain noTriton,RE007 growth inh,SARS PLpro yeast
Cc1cc(NC(=O)C2CCCN2C(=O)Nc2cccc(Cl)c2)ccc1-n1cnnn1 (stereo not given),.,-6%[46.1 µM],-13%[46.1 µM],9%,-5%,.,16%,0%
C/C(=N\NC(=O)c1cc(Br)ccc1O)c1ccccn1,.,2%[46.1 µM],9%[46.1 µM],-29%,-38%,.,-13%,5%
O=C(COc1ccc(Cl)cc1)NCC(=O)N1CCC2(CC1)NCCc1[nH]cnc12,.,3%[46.1 µM],17%[46.1 µM],8%,-3%,.,12%,-1%
COc1cccc(NC(=O)[C@H](C)NC(=O)C2CCN(S(=O)(=O)c3ccc(C)cc3)CC2)c1,.,0%,-1%,11%,-7%,.,-5%,1%
CCCNS(=O)(=O)c1ccc(CCC(=O)N2CCC(C)CC2)cc1,-0.5%,4%,2%,20%,-5%,10%,-16%,1%
CC(=O)CCSc1ncnc2sc(-c3ccccc3)cc12,.,-9%[46.1 µM],?,-11%,-3%,.,17%,-3%
CC1=CCC2C(=O)N(c3cccc(C(=O)Nc4ccc(Cl)cc4)c3)C(=O)C2C1 (stereo not given),.,-29%[46.1 µM],0%[46.1 µM],?,4%,.,0%,-10%
Cc1cc(-c2nnc(SCC(=O)Nc3nccs3)o2)no1,.,.,.,-5%,?,.,-4%,1%
N#Cc1ccc(-c2csc(NC3=NCCCCC3)n2)cc1,-4.3%,-1%,-11%,0%,14%,0%,-12%,-7%
COc1ccc(OC)c(N2Cc3ccccc3C2)c1,3.2%,2%,0%,8%,?,?,-10%,10%
CCCCCCCOc1ccc(C2CC(=O)N(C)C2=O)cc1 (stereo not given),.,-14%,28%,0%,11%,.,-15%,1%
O=[N+]([O-])c1ccc(O)c(/C=N/Nc2nc3ccccc3[nH]2)c1,-24%,3.5µM*,2.8µM*,11%,2%,-29%,50%,11µM*
O=C(O)COc1ccc(/C=N/n2c(COc3ccccc3)nc3ccccc3c2=O)cc1,-6.4%,1%,7%,-4%,-5%,?,-23%,7%
COc1ccccc1CNC(=O)C1CCCN1S(=O)(=O)c1cccc2cccnc12 (stereo not given),-1.3%,.,0%,-20%,-57%,8%,-6%,12%
C/C(=N\NC(=O)c1ccc(C)cc1C)c1ccc2c(c1)OCO2,0.9%,?,?,7%,-9%,-7%,4%,1%
Cc1cccc(Nc2ncnc(N)c2[N+](=O)[O-])n1,.,-4%[46.1 µM],0%[46.1 µM],-13%,4%,.,27%,1%
O=C(CCS(=O)(=O)c1ccc(Cl)cc1)Nc1ccc(F)cc1,.,3%[46.1 µM],-11%[46.1 µM],-4%,-4%,.,-4%,-2%
CCOC(=O)C1CCN(C(=O)Cn2ncc3c4ccccc4n(Cc4ccccc4F)c3c2=O)CC1,-2.5%,-13%[46.1 µM],-4%[46.1 µM],-12%,.,?,.,.

# Source: PubChem BioAssay
